Screening results from PubChem BioAssay.
Sa ugtP lethal: growth inhibition of ugtP-null S. aureus, primary screen, RN4220 ugtP deletion, OD600. 16 h; some inactives read as strong as hits. AID 1259309, 2017. growth inhibition, % (no concentration beside the values). 0.54% of 330,000 active;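 active = z-score under -3 and OD600 up to 0.15 on both plates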;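 note: plate controls were untreated wells for no effect and antibiotic for full effect; wells of about 80 µL received 100 nL stock; the first replicate is given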
Autofluor counter: counter-screen for toxin protease inhibitors: compound fluorescence; fluorescence intensity (test concentration not listed); 3.1% of 360,000 active; compound autofluorescence counterscreen, microsphere flow cytometry; stronger effect = higher value;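 active = at least 3 SD above the mean of all compounds, about 16000 in these data; inconclusive = too few beads counted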;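 note: 100 nL of 1 mM stock went into each well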
Sa RN4220 lethal: growth inhibition of S. aureus RN4220, primary screen, OD600; 16 h; inhibition, % (no concentration beside the values); 0.33% of 330,000 active;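 active = z-score of -3 or lower and OD600 up to 0.18 on both plates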;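 note: plate controls were untreated cells for no effect and reference antibiotic for full effect; stock transfer was 100 nL into about 80 µL; one replicate is shown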
Mtb hypoxia inh: PubChem AID 1159583; fluorescence inhibition, % (concentration not given with the values); M. tuberculosis hypoxia-regulated fluorescent reporter, fluorescence; 0.1% of 300,000 active;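 active = 35 to 45% if threefold the growth effect, above 45% if 1.5-fold the growth effect; inactive = the rest, general growth blockers included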;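 note: wells of about 50 µL received 100 nL stock; 0% = vehicle wells and 100% = reference inhibitor wells; whole bacteria with a GFP reporter of the hypoxia response; strong numbers were not always called active; many hits fall short of the cut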
PrP 5UTR inh: inhibition of PrP 5' UTR reporter expression. 0.35% of 340,000 active. cell-based PrP 5' UTR mRNA reporter, plate reader. inhibition, % (concentration not given with the values);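 active = every replicate at 50% or more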;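 note: 0 = median of the neutral control wells; tested in H4 reporter cells; numbers are from one replicate; inactives centre near -14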
BJeLR viability: MLPCN primary cell-based screen for lethality selective to Ras in HRASV12 cells; BJeLR (HRASV12) viability, CellTiter-Glo ATP luminescence, 48 h; reference of the scale not given here; inhibition, % (no concentration beside the values); 0.17% of 300,000 active;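 active = replicate mean above 50%; inconclusive = above 50% but judged a plate artefact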;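 note: 50 nL library stock added to about 25 µL; numbers are from one replicate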
Mtb hypoxia inh growth: second read-out of Mtb hypoxia inh, no call of its own (marks repeat the call); growth inhibition, %; measured here: M. tuberculosis growth (absorbance);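 0% = vehicle and 100% = reference antibiotic; read after six days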
* = called active by the depositor; ? = inconclusive; · = not tested or not shown. Rows were taken by chance. About 4% of those tested had a hit in this group.

SMILES	Sa ugtP lethal	Autofluor counter	Sa RN4220 lethal	Mtb hypoxia inh	Mtb hypoxia inh growth	PrP 5UTR inh	BJeLR viability
COc1ccc(C)cc1S(=O)(=O)N1CCN(S(=O)(=O)c2cc(C(=O)O)ccc2C)CC1	-2	4165	-2.6	-22	-11	-4	-3
Cc1nc2cc(-c3ccccc3)nn2c(C)c1CCC(=O)NCc1ccco1	10	4253	-1.1	7	5	18	-3
Cc1cc(C(C)(C)C)n2nc(C)c(-c3ccccc3)c2n1	5	3061	0.0	0	-1	-17	1
Cc1ccc(C=Nc2ccccc2C(N)=O)o1	4	2512	6.5	9	3	-7	3
CC(C)(Oc1ccc(Cl)cc1)C(=O)O/N=C(\N)c1ccncc1	16	2816	9.6	10	3	-6	-2
O=C(Nc1ccccc1Cl)N1CCN(C/C=C/c2ccccc2)CC1	4	2432	2.8	9	8	-18	0
COc1ccc(CNC(=O)c2c(C)nc3ccccn23)cc1	7	5059	6.0	·	·	-15	-3
Cc1ccc2c(c1)C1(OCCCO1)C(=O)N2CC(=O)NN	17	·	3.7	1	-1	·	-1
C#C[C@]1(O)CCC2C3CC=C4C[C@H](O)CC[C@]4(C)C3CC[C@@]21C (some centres undefined)	3	4121	8.9	0	14	-14	·
CN1CCC(=O)N([C@H](CO)Cc2ccccc2)CC1	·	4107	·	·	·	-10	0
Cc1ccc(S(=O)(=O)N(C)CC(=O)N2CCN(Cc3ccccc3)CC2)cc1	2	4325	2.4	-8	-7	1	9
CC(=O)NN=Cc1c(C)[nH]n(-c2ccccc2)c1=O	-4	·	9.9	5	19	·	·
O=C(NCCc1ccccc1)c1nc2c(nnn2Cc2ccccc2Cl)c(=O)[nH]1	-10	16657*	18	-2	-5	9	7
Cc1cc(NC(=O)CN2CCN(C)CC2)no1	5	4442	5.4	-3	4	12	2
COc1ccc(OC)c(C=NNc2cc(C)nc(N3CCOCC3)n2)c1	7	·	3.4	3	3	·	·
O=C(NCc1ccco1)c1n[nH]c(=O)c2ccccc12	10	7686	0.4	6	5	-9	2
CC(=NNC(=O)c1cc(C)nc2ccccc12)c1ccc([N+](=O)[O-])cc1	-1	·	-28	7	6	·	·
Cc1nc2c([nH]1)C1(CCN(Cc3ccccc3)CC1)C(C#N)=C(N)O2	6	5287	-2.3	·	·	-20	·
O=C(NN=Cc1ccc(OC(=O)c2ccccc2)cc1)c1cccc(O)c1	-1	·	4.2	7	-4	·	·
COc1ccc(C(=O)CSc2nnc(-c3ccco3)c(-c3ccco3)n2)cc1	-20	2062	5.6	1	12	-18	-2
CCC(=O)Nc1ccc(F)c(Cl)c1	-6	3147	-0.5	-6	-3	-24	1
CCOc1ccc(NC(=O)CSc2nc3nc(C)cc(C)n3n2)cc1	9	4364	4.8	2	-7	2	3
CC1=Nc2ccccc2C1=Cc1sc(Nc2ccc(C)cc2)nc1O	-28	·	0.6	4	7	·	·
N#Cc1cccc(NC(=O)C2CCCN(C(=O)c3ccc(Cl)cc3)C2)c1 (centres undefined)	0	3628	4.6	6	9	-13	·
O=C(NCc1cccs1)C1CCN(S(=O)(=O)c2ccc(Br)s2)CC1	3	2101	-0.6	·	·	-2	4

(more compounds)
SMILES	Sa ugtP lethal	Autofluor counter	Sa RN4220 lethal	Mtb hypoxia inh	Mtb hypoxia inh growth	PrP 5UTR inh	BJeLR viability
CCOc1ccccc1N(C)C(=O)Cn1ncc2c([nH]c3ccc(C)cc32)c1=O	6	4248	4.8	5	-5	6	4
COc1cccc(C(=O)NC2CC3CCCC(C2)N3CC(=O)Nc2ccccc2)c1 (centres undefined)	-1	3307	2.4	1	3	-5	-3
COc1ccc(C(=O)COC(=O)c2ccccn2)c(OC)c1	-2	2911	1.0	-1	1	-35	·
COc1ccc2c(c1)NC(C)(C)C=C2C	-4	1815	4.9	4	0	-25	-3
N#CC1=C(N)Oc2c(O)cc3ccccc3c2C1c1ccsc1 (centres undefined)	-26	2559	-9.0	15	2	-27	-2
Cc1nc2ccc(NC(=O)c3ccco3)cc2nc1C	4	3364	-3.3	0	0	-39	·
COc1cc(NC(=O)c2ccccc2)c(OC)cc1NC(=O)Cc1ccc(C)cc1	7	3294	7.5	-1	1	-15	-11
CCCN=C(N)/C(C(=O)OCC)=C(\O)c1ccc(OC)cc1	-1	21368*	5.3	5	5	-19	0
CC(C)CNC(=S)N1CCN(c2nc3ccccc3s2)CC1	3	3608	3.6	0	4	-30	-1
CCN(CC)S(=O)(=O)c1ccc(OC)c(NC(=S)Nc2cccc(C)c2)c1	0	·	9.5	17	7	·	-4
COc1ccc(OC)c(NC(=O)CSc2nnc(CNC(=O)c3cccs3)o2)c1	9	5123	1.4	8	5	-14	-5
O=C(C[C@H]1C[C@H](C(=O)N2CCCCC2)[C@@]2(CCc3ccccc3)c3[nH]c4ccc(Cl)cc4c3CCN2C1=O)NCc1cccc(C(F)(F)F)c1	-27	4134	-1.8	-7	2	-34	·
Cc1ccc(NC(=O)COc2ccc(C(=O)c3ccccc3)cc2)c(O)c1	5	5620	-3.6	-5	1	-24	5
O=c1c2[nH]c3ccccc3c2ncn1CCN1CCOCC1	4	3649	-0.1	4	5	-18	3
Cc1cccc(OCCn2cc(C=NNC(=O)c3ccncc3)c3ccccc32)c1	3	·	1.7	15	2	·	·
COc1ccccc1C(=O)NC(=O)COC(=O)CN1C(=O)NC(C)(C)C1=O	0	?	0.0	-8	5	-10	-3
CCc1nnc(NC(=O)c2cc([N+](=O)[O-])ccc2N2CCOCC2)s1	0	?	35	3	4	-8	-11
CC1CC1C(=O)OCC(=O)Nc1ccccc1Oc1ccccc1 (centres undefined)	6	2528	4.1	-7	-2	-13	-3
Cc1cc(C)cc(N(C(=O)c2ccccn2)C(C(=O)NC2CCCCC2)c2cccs2)c1 (centres undefined)	-5	7586	6.8	3	7	-13	2
CCOc1ccc(N2C(=O)CC(N)C2=O)cc1 (centres undefined)	24	2428	6.1	·	·	-4	·
CCN(CC(=O)N1CCN(C)CC1)S(=O)(=O)c1ccc(Cl)cc1	-3	2242	-4.1	·	·	-20	-1
COC(=O)[C@@H](NC(=O)NC(C)CCc1ccccc1)C(C)C (some centres undefined)	-1	3092	-8.5	5	8	-25	-12
CN1CC2C(c3ccc(Cl)nc3)C3(c4ccc(C#N)cc4)CC2(C3)C1c1ccccc1 (centres undefined)	6	·	7.6	8	7	·	·
CC(C)(C)c1ccc(NC(=O)CSc2nnc(-c3n[nH]c4ccccc34)o2)cc1	-38	2152	-6.9	-11	8	-32	-5
CC(=O)NNC(=S)NC(=O)C(c1ccccc1)c1ccccc1	10	2535	31	2	4	-7	1

Among those listed so far, these have a tert-butyl group.
SMILES	Sa ugtP lethal	Autofluor counter	Sa RN4220 lethal	Mtb hypoxia inh	Mtb hypoxia inh growth	PrP 5UTR inh	BJeLR viability
Cc1cc(C(C)(C)C)n2nc(C)c(-c3ccccc3)c2n1	5	3061	0.0	0	-1	-17	1
CC(C)(C)c1ccc(NC(=O)CSc2nnc(-c3n[nH]c4ccccc34)o2)cc1	-38	2152	-6.9	-11	8	-32	-5

Further records:
SMILES	Sa ugtP lethal	Autofluor counter	Sa RN4220 lethal	Mtb hypoxia inh	Mtb hypoxia inh growth	PrP 5UTR inh	BJeLR viability
Cc1ccc(-c2cc(C(F)F)n3ncc(C(=O)N4CCCCC4c4cccnc4)c3n2)cc1 (centres undefined)	3	4915	0.7	5	1	-5	-9
Cc1ccc(N2NC(=O)/C(=C/c3ccc(-c4ccc(Cl)c(C(=O)O)c4)o3)C2=O)cc1	0	1957	6.2	7	4	-72	-2
Cc1cc2[nH]c(=O)c(=O)[nH]c2cc1S(=O)(=O)NCc1ccc(Cl)cc1	6	5357	3.1	·	·	-18	-10
Cc1ccc(S(=O)(=O)N2CCOCC2)cc1NC(=O)COC(=O)c1ccc2c(c1)OCO2	1	2658	8.9	13	3	-15	-11
CC12CN3CC(C)(CN(C1)C3c1ccc(Cl)cc1Cl)C2=O (centres undefined)	3	6312	1.4	·	·	-12	-3
CCOC(=O)c1c(C)[nH]c(C(=O)COC(=O)/C=C/c2ccc(OCC#N)c(OC)c2)c1C	·	4451	·	·	·	-37	2
CCOC(=O)C1CCCN(C2=NC(=O)/C(=C/c3ccc(O)c(OCC)c3)S2)C1 (centres undefined)	-3	3990	2.0	1	-2	-2	10
CCOc1ccc(N=C(NC#N)SC)cc1	3	11009	4.3	6	8	·	-13
CC(=O)Nc1ccc(S(=O)(=O)Nc2nccc(/C=C/c3ccccc3F)n2)cc1	1	5031	0.4	3	1	-18	-6
NC(=O)C1CCN(c2nc(-c3cc4ccccc4o3)cs2)CC1	-10	3915	-4.5	4	5	-42	·
O=C(COC(=O)C1(c2ccccc2F)CCCC1)NCc1cccs1	2	2836	6.0	4	5	-9	-1
O=C1CC2(CCN(C(=O)c3c(F)cccc3F)CC2)Oc2ccccc21	2	5677	0.9	-3	4	-6	-4
O=C(CC1N=C(Cc2ccccc2)NNC1=O)NN=Cc1ccc([N+](=O)[O-])cc1 (centres undefined)	5	·	5.6	-6	9	·	·
COc1ccc(Cc2nnc(N/N=C(\C)c3ccccc3)[nH]c2=O)cc1OC	·	?	·	·	·	-15	-6
COc1ccc(-c2csc(NCCc3nc4cc(C(=O)NCCCO)ccc4n3Cc3ccc(C)cc3)n2)cc1	-15	4000	4.6	-5	8	-12	-6
Cc1ccccc1NC(=O)C(=O)NCC1CCCN1S(=O)(=O)c1cccs1 (centres undefined)	7	?	3.2	2	1	-18	6
CCOC(=O)c1c(NC(=O)COC)sc(C)c1C	2	2399	-4.7	15	23	-19	0
COc1cc(/C=N/NC(=O)c2ccoc2C)ccc1O	·	2129	·	·	·	-48	1
O=C(c1ccc([N+](=O)[O-])cc1)N1CCN(c2cccc3[nH]ccc23)CC1	4	6319	1.0	9	3	-57	-6
NC(=O)C1CCN(c2oc(/C=C/c3ccc(F)cc3)nc2S(=O)(=O)c2ccccc2)CC1	12	4331	4.2	6	-2	6	1
CCCCc1nnc(NC(=O)c2ccc3c(=O)n4c(nc3c2)CCC4)s1	-13	5984	6.3	11	8	-25	5
COc1ccc(OC)c(C2=NOC(C(=O)NCc3ccccn3)C2)c1 (centres undefined)	3	8284	4.3	0	3	-3	-3
O=C(CSc1nnc2ccccn12)NCc1cccs1	5	3160	17	0	13	-5	-1
CCCc1cc(C(=O)NNC(=S)NC2CCCCC2)cs1	-8	4719	0.3	4	2	-4	-3
CS(=O)(=O)N(CC(O)CON=C1c2ccccc2-c2ccccc21)c1ccc(F)cc1 (centres undefined)	5	6002	6.5	4	1	-9	2

Later entries
SMILES	Sa ugtP lethal	Autofluor counter	Sa RN4220 lethal	Mtb hypoxia inh	Mtb hypoxia inh growth	PrP 5UTR inh	BJeLR viability
CCOC(=O)c1oc2c(CN3CCN(C)CC3)c(O)c(CC)cc2c(=O)c1-c1nc2ccccc2s1	6	4043	-0.2	13	-4	-13	·
N#C/C=C/N1CCC(Cc2ccccc2)CC1	-2	4223	-0.6	-8	7	-22	-1
C=CCn1c(SCc2cccc3ccccc23)nnc1-c1cccnc1	0	21679*	9.3	7	13	-4	-7
O=C1C2CCCN2C(=O)N1CCCN1CCN(c2ccc([N+](=O)[O-])cc2)CC1 (centres undefined)	4	3813	-1.2	-3	7	-9	-6
Clc1ccc(CN2CCN(c3ncccn3)CC2)cc1	17	3949	5.3	13	7	-12	-2
COC(=O)Nc1nc(-c2cc(Cl)ccc2Cl)cs1	14	3440	8.6	-3	1	-15	0
Cc1ccc2c(c1)NC(=O)C(N1CCOCC1)(C(F)(F)F)O2 (centres undefined)	-1	4412	3.1	·	·	-24	-2
CCNc1ccccc1C(=O)O	8	5789	3.4	·	·	-22	0
COc1ccc(CCNC(=O)CCSc2nc(-c3ccco3)cc(C(F)(F)F)n2)cc1OC	-3	2450	-3.0	·	·	-9	-4
CC(C)CN(C(=O)COC(=O)C(C)N1C(=O)c2ccccc2C1=O)c1c(N)n(Cc2ccccc2)c(=O)[nH]c1=O (centres undefined)	10	4900	2.9	2	1	-6	-3

Single records (already shown). Order of values: Sa ugtP lethal | Autofluor counter | Sa RN4220 lethal | Mtb hypoxia inh | Mtb hypoxia inh growth | PrP 5UTR inh | BJeLR viability
`COC(=O)Nc1nc(-c2cc(Cl)ccc2Cl)cs1` in the list: 14 | 3440 | 8.6 | -3 | 1 | -15 | 0
`C=CCn1c(SCc2cccc3ccccc23)nnc1-c1cccnc1` in the list: 0 | 21679* | 9.3 | 7 | 13 | -4 | -7
`COc1ccc(CCNC(=O)CCSc2nc(-c3ccco3)cc(C(F)(F)F)n2)cc1OC` in the list: -3 | 2450 | -3.0 | · | · | -9 | -4
